Screening results from PubChem BioAssay.
Mtb bLac sens – beta-lactam sensitization of Mtb H37Rv. M. tuberculosis H37Rv growth with meropenem, percent inhibition; hits of this screen are not shown here. inhibition, % at 25 µM. hit rate 0.27% among 330,000. AID 434955;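 active = about 74% or more and at least 40 points above the plate without the antibiotic, then above 30% in a dose series; inconclusive = first-round hits that could not be retested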;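 note: growth measured after seven days incubation then overnight dye step; 0% = bacteria only wells and 100% = bacteria with antibiotic; twin plates without the antibiotic show which effects depend on it; some results filed as inactive read as strong as hits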
RecA splice inh – inhibitors of M. tuberculosis RecA intein splicing. cell-free RecA intein splicing, fluorescence. inhibition, %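 (about 9 µM by stock and volumes)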. hit rate 0.75% among 290,000. AID 2221; in the data active = inhibition above about 30%; inconclusive = no clear call, values can overlap the other calls;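 note: 0% = vehicle wells and 100% = reference inhibitor control wells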
Target sequence (P9WHJ3 whole entry, looked up, canonical isoform): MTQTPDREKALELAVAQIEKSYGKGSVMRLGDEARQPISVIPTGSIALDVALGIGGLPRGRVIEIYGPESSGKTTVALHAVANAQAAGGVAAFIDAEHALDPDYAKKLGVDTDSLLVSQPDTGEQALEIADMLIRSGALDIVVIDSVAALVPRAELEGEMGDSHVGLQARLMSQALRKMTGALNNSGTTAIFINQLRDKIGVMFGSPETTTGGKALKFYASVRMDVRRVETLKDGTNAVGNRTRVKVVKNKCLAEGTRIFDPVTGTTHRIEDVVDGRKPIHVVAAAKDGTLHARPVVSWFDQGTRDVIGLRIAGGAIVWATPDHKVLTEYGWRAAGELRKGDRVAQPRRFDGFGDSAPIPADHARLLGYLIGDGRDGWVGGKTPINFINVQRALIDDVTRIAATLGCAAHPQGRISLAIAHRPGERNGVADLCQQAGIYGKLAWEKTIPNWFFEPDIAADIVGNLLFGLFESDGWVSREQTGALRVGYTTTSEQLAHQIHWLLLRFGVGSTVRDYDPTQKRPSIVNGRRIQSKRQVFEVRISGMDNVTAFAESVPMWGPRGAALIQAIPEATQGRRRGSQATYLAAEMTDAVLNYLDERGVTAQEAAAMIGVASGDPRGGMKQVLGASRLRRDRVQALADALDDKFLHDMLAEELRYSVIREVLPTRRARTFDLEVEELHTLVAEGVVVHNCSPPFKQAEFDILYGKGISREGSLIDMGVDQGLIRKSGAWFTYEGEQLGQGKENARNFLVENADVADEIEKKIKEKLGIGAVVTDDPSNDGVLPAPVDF
Arbovirus inh – blocks arbovirus infection; arbovirus infection cell-based antiviral screen; hit rate 0.37% among 200,000; inhibition, % at 10 µM;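 active = inhibition from about 30%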;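 note: bluetongue infection of BSR cells; cell survival read as ATP light after 72 h; 0% = infected wells without compound and 100% = uninfected wells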
Mtb growth – M. tuberculosis H37Rv growth inhibitors, H37Rv strain (AID 1626); inhibition, % at 10 µM; hits with a dose series show IC50 in µM; M. tuberculosis H37Rv growth inhibition; higher % means a stronger effect; hit rate 0.95% among 220,000;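 active = confirmed in a dose series; inconclusive = inhibition above 80% but not taken into the dose series; inactive = below 80% or under 30% at every dose of the series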;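 note: bacteria incubated seven days before Alamar blue readout; 0% = bacteria only wells and 100% = bacteria with antibiotic wells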
YopH inh – YopH (Yersinia) phosphatase inhibition; fluorescence Ex485/Em525; inhibition, %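 (about 10 µM by stock and volumes)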; hit rate 0.16% among 140,000;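 active = inhibition of 50% or more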;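 note: controls were vehicle for no effect and minimum signal wells for full effect; inactives centre near -20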
Arbovirus inh repeat – further read-out of Arbovirus inh, marked with its call; inhibition, %; measured here: 10K subset replicate screen; many hits read low in the repeat;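 first of two repeat runs on a subset; 0% = infected and 100% = uninfected wells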
Starred values were filed as active, the others as inactive; ? = inconclusive; . = not tested or not shown. These rows are one share of the data; count on the stated rates, not on these rows.

SMILES | Mtb bLac sens | RecA splice inh | Arbovirus inh | Mtb growth | YopH inh | others
O=S(=O)(c1ccc(NCCc2c[nH]c3ccccc23)nc1)N1CCOCC1 | 2 | . | 2 | 4% | -28
O=C(Nc1ccc([N+](=O)[O-])cn1)c1cccnc1 | -3 | 0.4 | . | . | .
Nc1cc(S(=O)(=O)Nc2ccc(Br)cc2)ccc1Cl | 4 | 7.1 | . | 8% | .
COc1ccc(CCNC(=O)C2CCN(S(C)(=O)=O)CC2)cc1 | -4 | . | 4 | -7% | -7
Cc1ccccc1NC(=O)c1cccc(S(=O)(=O)Oc2ccc([N+](=O)[O-])cc2)c1 | 7 | 7.1 | -9 | 7% | -52
Cc1noc(C)c1C(=O)Nc1ccc(Cl)cc1C(F)(F)F | 2 | -0.5 | 3 | -5% | -12
CO/N=C\CC(=O)Nc1ccc(Cl)c(Cl)c1 | -6 | 2.5 | -13 | ? | .
CCOC(=O)c1c(/N=C/C2=C(O)CC(C)(C)CC2=O)sc(C(C)=O)c1C | -2 | -2.9 | -7 | -4% | .
Cc1cc(S(=O)(=O)N2CCCCC2CCNC(=O)C(=O)NCc2cccnc2)ccc1F (configuration not stated) | -1 | 1.2 | . | . | .
Cc1ccc(C(C(=O)NC(C)(C)C)N(CCCN2CCOCC2)C(=O)c2ccc(-c3ccccc3)[nH]2)o1 (configuration not stated) | 7 | 1.7 | -3 | -6% | .
CCN(Cc1ccncc1)C(=O)c1ccc2c(c1)S(=O)(=O)c1ccccc1C2=O | 1 | -3.9 | 8 | 4% | .
COc1ccc(-n2c(SCC(=O)Nc3ccc(NC(C)=O)cc3)nc3ccccc3c2=O)cc1 | -2 | -0.9 | . | . | .
O=C(CCC(=O)OCC(=O)c1ccc(Cl)cc1)NC1CCCCC1 | -2 | 0.7 | 10 | -3% | -142
CCC1CCC2(CC1)NC(=O)N(CC(=O)Nc1cc(C)on1)C2=O (configuration not stated) | 0 | -1.9 | -5 | 3% | 4
Cc1cccc(NC(=O)CCCCCN2C(=O)[C@@H]3Cc4ccccc4CN3C2=O)c1 | 2 | 5.0 | . | . | .
Cc1cc(/C=N/NC(N)=S)c(C)n1-c1ccc(Cl)cc1 | 93 | -0.8 | -4 | 57% | -24
CCOc1ccccc1-c1cc(-c2n[nH]c(=S)n2CC)c2ccccc2n1 | 0 | -40 | 2 | -1% | -27
COc1cc(/C=C/c2[nH]c(=O)[nH]c(=O)c2[N+](=O)[O-])cc([N+](=O)[O-])c1O | 6 | -0.7 | . | . | .
CCC(=O)n1nc(-c2ccc(Cl)cc2)nc1N | 1 | -4.0 | 5 | 4% | .
COc1cc(NC(=O)Cn2c([N+](=O)[O-])cnc2C)c(OC)cc1Cl | -10 | -1.3 | . | . | .
COc1cccc(N2CCN(C(=O)c3cc4ccc(OC)cc4[nH]3)CC2)c1 | -5 | 1.7 | . | . | .
COc1ccccc1NC(=O)/C(=C\c1cccs1)NC(=O)c1ccco1 | 0 | 3.7 | . | 0% | .
CCCC1=C(C(=O)OCC)C2(C(=O)Nc3ccc(C)cc32)C(C#N)=C(N)O1 (configuration not stated) | -15 | 7.0 | 11 | 1% | -34
CCOc1ccccc1OCCCCN1CCCC1 | -4 | -4.7 | -3 | -5% | 14
Cc1cc(NS(=O)(=O)c2ccc(NC(=O)/C=C/c3ccco3)cc2)nc(C)n1 | -7 | 0.3 | . | -9% | .

Quoted from the listing, 2 compounds:
SMILES | Mtb bLac sens | RecA splice inh | Arbovirus inh | Mtb growth | YopH inh | others
CCN(Cc1ccncc1)C(=O)c1ccc2c(c1)S(=O)(=O)c1ccccc1C2=O | 1 | -3.9 | 8 | 4% | .
COc1ccc(-n2c(SCC(=O)Nc3ccc(NC(C)=O)cc3)nc3ccccc3c2=O)cc1 | -2 | -0.9 | . | . | .

Other structures
SMILES | Mtb bLac sens | RecA splice inh | Arbovirus inh | Mtb growth | YopH inh | others
Cc1nc2ccc(NC(=O)NCCO)cc2s1 | 1 | -1.9 | -1 | 0% | -22
COc1cc(NC(=O)c2cc(C)nc3ccccc23)cc(OC)c1OC | 2 | -1.5 | -3 | 0% | .
O=C(CS(=O)(=O)Cc1ccccc1)N1CCN(c2ccccc2F)CC1 | 5 | -0.9 | . | . | .
COc1cc(NC(=O)CN2C(=O)c3ccccc3Sc3ccc(C(=O)N4CCOCC4)cc32)cc(OC)c1OC | -1 | 1.0 | -3 | -2% | .
CCC(=O)Nc1nnc(SCCOC)s1 | -13 | -2.3 | 9 | 0% | -9
CSCCCNC(=S)N1CCc2ccccc2C1 | 2 | 0.0 | 9 | 8% | .
O=C(O)CC(=O)Nc1ccc(Oc2ccc(C(F)(F)F)cn2)c(Cl)c1 | 2 | -7.3 | 11 | -2% | .
Cn1nnc2ccccc2c1=O | -8 | 0.3 | 13 | 1% | .
O=C(CSc1ncn[nH]1)Nc1cccc(S(=O)(=O)N2CCCCCC2)c1 | 3 | -4.5 | 0 | 3% | -20
COc1ccccc1C(C[N+](=O)[O-])c1c[nH]c2ccccc12 (configuration not stated) | -5 | . | . | 1% | .
CC(=O)c1cccc(NC(=O)c2cccc(N3C(=O)c4ccccc4C3=O)c2)c1 | 2 | 0.7 | . | . | .
Cc1ccnc(NC(=O)CCC(=O)N(CC(=O)NC(C)(C)C)C2CCCC2)c1 | -11 | 19 | -2 | -3% | -33
CCCC(c1nnnn1C(C)(C)CC)N1CCN(C(=O)c2ccco2)CC1 (configuration not stated) | 3 | -0.3 | . | . | .
O=C(NCC(=O)N1CCc2ccccc2C1)c1ccccc1Cl | 2 | -0.6 | . | . | .
CCN(CC)C(=O)c1ccc(N2C(=O)C3CC=C(Cl)CC3C2=O)cc1 (configuration not stated) | 1 | -1.7 | 8 | 3% | -45
COc1ccc(N2CC(C(=O)Nc3nnc(SCC(=O)NCC4CCCO4)s3)CC2=O)cc1 (configuration not stated) | ? | -1.6 | . | . | .
CCN1C(=O)CSc2ccc(C(=O)OC)cc21 | 4 | 1.5 | -2 | . | -22 | Arbovirus inh repeat=1
Cc1ccc(NC(=O)c2c(C)noc2-c2snnc2C)cc1 | -13 | -1.0 | . | 3% | .
COc1cccc2c1C(=O)O/C2=C/c1ccc2c(c1)OCO2 | 10 | -22 | -16 | 8% | -12
O=C(O)C1=C[C@H](c2ccc(C(F)(F)F)cc2)C[C@H](OCCCCO)O1 | -1 | 1.5 | . | -3% | .
CCOc1cccc(-c2nnc(SCC(=O)Nc3cc(OC)cc(OC)c3)n2N)c1 | 4 | -2.3 | 6 | -24% | -59
Cc1c(N2C(=O)CSC2c2ccc([N+](=O)[O-])cc2)c(=O)n(-c2ccccc2)n1C (configuration not stated) | -4 | 4.1 | . | -13% | .
CC(C)CC(NC(N)=O)C(=O)OCC(=O)N(Cc1ccccc1)Cc1ccccc1 (configuration not stated) | 4 | 0.0 | 5 | -8% | .
NC(=O)CC[C@@H]1NC(=O)[C@@H]2CCCN2C(=O)c2cc([N+](=O)[O-])cc(F)c2NCCC[C@@H](C(N)=O)NC1=O | -1 | 1.0 | 9 | -4% | -40
Cc1nn(Cc2ccc(F)cc2)c(C)c1NC(=O)c1cc2ncc(Br)cn2n1 | -13 | 2.2 | -2 | 1% | .
SMILES | Mtb bLac sens | RecA splice inh | Arbovirus inh | Mtb growth | YopH inh | others
O=C(NC(=S)NC1CC1)c1cccnc1 | -4 | 1.1 | -3 | 3% | -24
O=C(O)c1cc(/C=C/C(=O)c2cc(F)ccc2O)c2c(c1)COCO2 | 12 | . | . | 11% | .
Cc1cccc(OCC(=O)Nc2cc(C)on2)c1 | -4 | 0.4 | -3 | -9% | 7
Cc1noc(C)c1CSCC(=O)Nc1cc(S(=O)(=O)N2CCOCC2)ccc1OC(C)C | -3 | 2.6 | . | . | .
COc1ccccc1NC(=O)Nc1cccnc1 | -4 | -1.3 | -4 | 0% | .
COc1cc(/C=N/NC(=O)C(C)n2nnc3ccccc32)ccc1O (configuration not stated) | 10 | -4.7 | 0 | -4% | -7
Cc1ccc2nc(SCC(=O)Nc3ccc(F)cc3)nc(=O)n2c1 | 1 | -2.9 | . | . | .
O=C(Nc1ccc(-c2nc3c(ccc4ccccc43)o2)cc1)c1ccco1 | 9 | 4.4 | -3 | 2% | -8
Cc1ccc(NC(=O)c2cc(-c3ccco3)on2)cc1 | . | -0.3 | -12 | 1% | -43
COc1ccc(S(=O)(=O)N2CCOCC2)cc1NC(=O)CSc1nnc2ccccn12 | 6 | -2.1 | 4 | -4% | .
Cc1cc(CN(C)C(=O)CC2C(=O)NCCN2Cc2ccc(-c3ccccc3)cc2)on1 (configuration not stated) | -6 | 1.0 | . | . | .
COC(=O)c1cc2ccsc2n1CC(=O)Nc1cc(C)cc(C)c1 | 6 | 0.4 | -5 | -1% | -21
COc1ccc(-n2c(C)cc3cc(OC(C)=O)ccc32)cc1 | 3 | 1.1 | . | . | .
Cc1ccc(N2CC(C(=O)Nc3cc(C)on3)CC2=O)c(C)c1 (configuration not stated) | -2 | 0.6 | . | . | .
COC(=O)[C@H](Cc1ccccc1)NC(=O)c1ccc2ccccc2n1 | -2 | 1.4 | . | . | .
Cc1ccccc1-n1c(SC/C(O)=C(\C#N)c2nc3ccccc3[nH]2)nnc1-c1ccncc1 | 45 | -2.7 | -2 | 10% | -21 | Arbovirus inh repeat=3
O=C(COC(=O)c1ccccc1Cl)Nc1nccs1 | 4 | 0.3 | -8 | -7% | -32
O=c1c(Cc2ccc(F)cc2)c(O)ccn1CCc1ccccn1 | -4 | -2.0 | 7 | 0% | .
Cc1ccccc1CSCCNS(C)(=O)=O | 1 | -0.1 | 7 | 5% | -12
Cc1cc(C)n(CC(=O)NNC(=O)CCNC(=O)c2ccccc2Cl)n1 | -3 | -1.6 | . | . | .
CCn1c2ccccc2c2cc(Nc3cc(C)nc4ncnn34)ccc21 | 31 | 7.8 | -8 | 14% | -25 | Arbovirus inh repeat=-26
O=C(CC1NCCc2ccccc21)Nc1cccc(Cl)c1 (configuration not stated) | -6 | -4.9 | -6 | 6% | .
O=C(CCC1(C(=O)O)CCC(=O)NC1)NCc1ccccc1 (configuration not stated) | -2 | -1.3 | 2 | -5% | -43
CN(C)C(/C=C/Nc1ccccc1F)=C(C#N)C#N | 2 | 0.9 | 10 | 0% | -6
COc1ccc(N2C(=O)C(Cl)=C(Oc3cccc(OC)c3)C2=O)cc1 | -1 | 39* | 1 | 4% | .
SMILES | Mtb bLac sens | RecA splice inh | Arbovirus inh | Mtb growth | YopH inh | others
Cc1cccc(NC(=O)/C(C#N)=C/c2ccc(Sc3ccccc3)o2)c1C | 2 | -10 | -2 | 9% | -34
COc1cccc(-n2c(SCc3ccccn3)nc3c(c2=O)SCC3)c1 | -7 | -0.1 | 6 | 2% | .
N#Cc1c(NC(=O)C2C3C=CC(C3)C2C(=O)O)sc2c1CCCCC2 (configuration not stated) | 0 | -0.1 | -4 | 0% | .
Cc1ccccc1NC(=O)CN1C(=O)S/C(=C\c2cccn2-c2cccc(C(=O)O)c2)C1=O | 4 | -1.8 | 5 | -4% | 1
CC(C)Oc1ccc(CSc2ncn[nH]2)cc1 | -5 | 4.1 | 5 | -2% | .
COc1ccc(CCNC(=O)CN(c2cccc([N+](=O)[O-])c2)S(C)(=O)=O)cc1 | 2 | 1.8 | -3 | -9% | .
O=c1[nH]c(CN2CCN(c3ccccc3Cl)CC2)nc2ccsc12 | 4 | -1.7 | 2 | 4% | 7
COc1ccc(/C=N/NC(=O)c2cc(-c3ccccc3OC)nc3ccccc23)cc1COC(C)=O | -11 | 8.1 | 0 | -6% | -21
O=C(Nc1cccc(-c2cn3c(n2)SCC3)c1)c1ccc2ccccc2n1 | 19 | -3.4 | -9 | 5% | .
COc1ccc(CNC(=O)Cn2ccc3cc(S(=O)(=O)N4CCCC4)ccc32)cc1OC | 1 | -0.8 | . | . | .
Cc1csc(CNC(=O)c2ccc(OC3CCN(CCc4ccccc4)CC3)cc2)n1 | 3 | -7.4 | . | . | .
Cn1c(CC(=O)Nc2ccc(Cl)cc2)nnc1SCC(=O)N1CCOCC1 | -2 | -1.4 | . | . | .
COc1ccc(CC(=O)Nc2c3c(nn2C(C)(C)C)CS(=O)(=O)C3)cc1 | -7 | 1.6 | . | . | .
CCc1ccc(CCC(=O)Nc2nccs2)o1 | 4 | -0.8 | 16 | -1% | -41
N#CC1=C(N)C2=CCCC[C@H]2[C@H](c2ccccc2)C1(C#N)C#N | -1 | -5.8 | 18 | 9% | -2
COCCCNC(=O)Cn1cc(C(C)=O)c2ccccc21 | -4 | 0.5 | -1 | -10% | -33
Cc1ccc(S(=O)(=O)C(C)C(=O)NCCS(=O)(=O)c2ccc(Cl)cc2)cc1 (configuration not stated) | -2 | 5.7 | 2 | 0% | .

Retrieved one by one from the entries so far, 2 records:
SMILES | Mtb bLac sens | RecA splice inh | Arbovirus inh | Mtb growth | YopH inh | others
COc1cccc(-n2c(SCc3ccccn3)nc3c(c2=O)SCC3)c1 | -7 | -0.1 | 6 | 2% | .
N#CC1=C(N)C2=CCCC[C@H]2[C@H](c2ccccc2)C1(C#N)C#N | -1 | -5.8 | 18 | 9% | -2
